Vaccinia mCherry: vaccinia inhibition (mCherry reporter); Vaccinia virus mCherry reporter infection, fluorescence; about a quarter of the inactives have no number; Potency, µM (series often up to 36.5 µM), inactives show top-dose activity change, negative = inhibition, most hits filed as inhibitors; actives 0.63% (n = 310,000); active = well fitted inhibition curve with a large enough effect; inconclusive = small, poorly fitted or top-dose-only effect; inactive = no such curve, though single readings can be large or run the other way; tested in A549 cells; further: nearly all actives have a fitted effect of over 35% in size; inactives centre near -10
VACV Venus inh: vaccinia inhibition (Venus reporter). Vaccinia virus Venus reporter expression, fluorescence. Potency, µM (top dose mostly 36.5 µM), for the others: at the top dose activity change, negative = inhibition, most hits filed as inhibitors. actives 0.46% (n = 330,000). AID 720580; active means well fitted inhibition curve with a large enough effect; inconclusive means small, poorly fitted or top-dose-only effect; inactive means no such curve, though single readings can be large or run the other way; tested in A549 cells; further: nearly all actives have a fitted effect of over 30% in size; inactives centre near -10
An asterisk follows results filed as active; i = inactive; ? = inconclusive; . = no result given; & = joins results of further samples; [ ] = another dose, or the depositor's remark. On the % scale 0 is the no-effect control and ±100 the full control effect; potency means the concentration at half of the fitted maximal effect.

SMILES	Vaccinia mCherry	VACV Venus inh
CC1(C)C/C(=N/Nc2ccc([N+](=O)[O-])cc2[N+](=O)[O-])C(C)(C)O1	6%	-7%
COC(=O)C(C)N(C#N)c1nc(C)cc(C)n1 (centres undefined)	-13%	-8%
CC(C)COC(=O)n1ccc(C(=O)N2CCCCC2)n1	-7%	-3%
CCOC(=O)CC1=CC(=O)Nc2ccccc2N1	.	-5%
CC(C)CNc1ncnc2c1cnn2Cc1ccc(Cl)cc1	-22%	-9%
CN=C(Nc1ccc(Br)cc1)SC1CC(=O)N(c2ccc(OC)cc2)C1=O (centres undefined)	i	-19%
CCc1nnc(NC(=O)CSc2nnc(-c3ccncc3)n2C)s1	-15%	-13%
CCC(=O)Nc1ccccc1C(=O)OCc1ccc(C(=O)c2ccccc2)cc1	-14%	-19%
CN(C(=O)COC(=O)/C=C/c1ccc2ccccc2n1)C1CCS(=O)(=O)C1 (centres undefined)	?	?
C[C@H](NC(=O)c1nc[nH]c1C(=O)NCCCCCNC(=O)OC(C)(C)C)C(=O)OCc1ccccc1	i	-7%
CCC(CC)COC(=O)C1=C(C)NC(=O)NC1c1ccccc1Br (centres undefined)	-22%	-18%
COc1ccc(NC2=C(c3ccc(OC)cc3)C(=O)c3ccccc32)cc1	-18%	-1%
CC(=O)Nc1ccc(OCCOc2ccc(/C=C3\C(=N)N4N=C(C)SC4=NC3=O)cc2)cc1	i	-3%
CC(=O)c1ccc2c3c(ccc(O)c13)CC2	-18%	-11%
O=[N+]([O-])c1cc(Cl)ccc1N1CCN(c2cccc(C(F)(F)F)c2)CC1	-11%	-16%
CCOC(=O)CNC(=O)N1CCN(S(=O)(=O)c2ccc3c(ccn3C)c2)CC1	-14%	-3%
COc1ccc(S(=O)(=O)N2CCN3CCCC3C2)cc1 (centres undefined)	i	-5%
COC(=O)c1c(NC(=O)CSc2nnnn2-c2ccccc2)sc2c1CCC(C(C)(C)C)C2 (centres undefined)	-23%	-4%
CCC(=O)c1ccc(OCC(=O)OCC(=O)N2CCN(c3ccc(OC)cc3)CC2)cc1	-15%	-11%
CN(c1ccccc1)c1nc(N2CCCC2)nc(-n2ccnc2)n1	-16%	?

The closing 6 entries of the part before come first, to join the parts.
SMILES	Vaccinia mCherry	VACV Venus inh
O=[N+]([O-])c1cc(Cl)ccc1N1CCN(c2cccc(C(F)(F)F)c2)CC1	-11%	-16%
CCOC(=O)CNC(=O)N1CCN(S(=O)(=O)c2ccc3c(ccn3C)c2)CC1	-14%	-3%
COc1ccc(S(=O)(=O)N2CCN3CCCC3C2)cc1 (centres undefined)	i	-5%
COC(=O)c1c(NC(=O)CSc2nnnn2-c2ccccc2)sc2c1CCC(C(C)(C)C)C2 (centres undefined)	-23%	-4%
CCC(=O)c1ccc(OCC(=O)OCC(=O)N2CCN(c3ccc(OC)cc3)CC2)cc1	-15%	-11%
CN(c1ccccc1)c1nc(N2CCCC2)nc(-n2ccnc2)n1	-16%	?
COc1ccc(NC(=O)CCOc2ccccc2C)cc1S(=O)(=O)N1CCCCC1	-16%	-9%
COc1ccc(CCNC(=S)N2CCN(S(=O)(=O)c3ccccc3)CC2)cc1	-3%	-22%
CCN(Cc1ccccc1)S(=O)(=O)c1ccc(C(=O)N2CCN(c3nc4ccccc4s3)CC2)cc1	-22%	-23%
CN1C(=O)C2(SCC(=O)N2c2cccc(C(F)(F)F)c2)c2ccccc21 (centres undefined)	-5%	2%
CN(C)S(=O)(=O)c1ccc(NC(=O)COc2ncnc3c2cnn3-c2ccccc2)cc1	-1%	-20%
CNC(=O)C1CCN(Cc2cc3ccccc3n2Cc2ccccc2C)CC1	-4%	-4%
Cc1cc(C(=O)OCC(=O)N2C(C)CCCC2C)c2ccccc2n1 (centres undefined)	i	-19%
Cn1c(Cn2c(=O)sc3ccccc32)nnc1SCC(=O)NC1CCCCC1	3%	-4%
CC(C(=O)NC1CCCC1)N1CCN(Cc2ccccc2)CC1 (centres undefined)	-4%	-9%
CCOC(=O)c1c(-c2ccccc2)oc2ccc(N(C(C)=O)S(=O)(=O)c3ccc(CC)cc3)cc12	?	-22%
Cc1ccc(-c2nc(-c3cc4cc(Cl)ccc4oc3=O)sc2C)cc1	-14%	10%
O=C(CCC(=O)Nc1ccc(F)cc1)N/N=C/c1ccccc1O	?	?
Cc1c(NC(=O)C(C)OC(=O)c2cccc([N+](=O)[O-])c2)c(=O)n(-c2ccccc2)n1C (centres undefined)	i	8%
O=C(OCC1OC(n2ccc(=O)[nH]c2=O)C2OC12)c1ccccc1 (centres undefined)	-1%	-10%
Cn1nnc2cc(C(=O)N3CCN(c4ccccc4)CC3)ccc21	-3%	-14%
C=CCn1c(=O)[nH]c2cc(C(=O)N3CCN(c4cccc(Cl)c4)CC3)ccc2c1=O	?	-29%
COc1ccc(C(=O)N2CCN(CCCc3ccccc3)CC2)cc1OC	-24%	-16%
CNCCc1c(C)n[nH]c1C	.	-28%
CNS(=O)(=O)c1cccc(C(=O)OCC(=O)c2cc(C)n(-c3ccc4c(c3)OCO4)c2C)c1	.	-23%
CC(C)Oc1ccc(S(=O)(=O)N2CCCCC2)cc1NC(=O)CN1C(=O)NC(C)(C2CC2)C1=O (centres undefined)	-11%	-5%

Sorted by molar mass (highest first): part of the list above.
SMILES	Vaccinia mCherry	VACV Venus inh
CC(C)Oc1ccc(S(=O)(=O)N2CCCCC2)cc1NC(=O)CN1C(=O)NC(C)(C2CC2)C1=O (centres undefined)	-11%	-5%
Cc1ccc(-c2nc(-c3cc4cc(Cl)ccc4oc3=O)sc2C)cc1	-14%	10%
O=C(CCC(=O)Nc1ccc(F)cc1)N/N=C/c1ccccc1O	?	?
Cn1nnc2cc(C(=O)N3CCN(c4ccccc4)CC3)ccc21	-3%	-14%

(listing goes on)
SMILES	Vaccinia mCherry	VACV Venus inh
Cc1cc(OCC(=O)N(C(C)C)C(C)C)ccc1Cl	i	-16%
Cc1ccc2cc(CNC(C)C)c(=O)[nH]c2c1	-11%[1.46 µM]	0%
Cc1ccc(C2=NS(=O)(=O)N(C)C(C(=O)N3CCCCC3)=C2)cc1	i	-3%
Cc1ccc2oc(-c3ccccc3)c(C(=O)O)c(=O)c2c1	-4%	-20%
CC(Oc1ccc(Cl)cc1Cl)c1nc(-c2ccc(NC(=O)c3cccnc3)cc2)no1 (centres undefined)	.	?
COc1ccc2nc(N3C(=O)C(O)=C(C(=O)c4ccco4)C3c3ccc(C)o3)sc2c1 (centres undefined)	?	-15%
CC(C)Cc1nnc(NC(=O)Cc2ccccc2[N+](=O)[O-])s1	-13%	-3%
Cc1ccc(NC(=O)CCCSc2ccccc2)cc1S(=O)(=O)N1CCOCC1	?	-20%
CN1CCCC(C(=O)C(C#N)c2ccccc2)C1 (centres undefined)	-8%	-4%
COc1cc(NC(=O)c2ccccc2)ccc1NC(=O)c1cc2ccccc2o1	-24%	-8%&-24%
Cc1ccc2[nH]c(=O)c(CN(CCO)Cc3nnnn3CCc3ccccc3)cc2c1	.	1%
COc1ccc(/C=N/NC(=O)Cn2cnc3c2c(=O)n(C)c(=O)n3C)c(OC)c1OC	-8%	-1%
O=C(NCc1noc2ccccc12)Nc1ccc(F)cc1F	1%	-3%
O=C(Cn1nc(-c2ccccc2)c2c(c1=O)CCCC2)Nc1ccc(F)c(Cl)c1	-6%	-15%
O=C(CCN1C(=O)c2ccc([N+](=O)[O-])cc2C1=O)Nc1nccs1	4%	3%
Cc1ccccc1OCC(=O)Nc1ccc([N+](=O)[O-])cc1	-9%	?
COc1ccc(CNC(=S)NCc2ccc(F)cc2)cc1OC	-2%	-12%
CCOC(=O)[C@H]1[C@H]2COc3ccc(Br)cc3[C@@H]2N2C(=O)CN(C)C(=O)[C@@]12C	-12%	-19%
O=c1[nH]c2ccccc2nc1/C=C/c1ccc(F)cc1	i	85%[activator]
Cc1ccccc1OCCOC(=O)c1cc(S(=O)(=O)N2CCOCC2)ccc1C	-5%	-24%
CCn1c(C)nc2cc(C(=O)N/N=C/c3ccccc3C)ccc21	-6%	-5%
COC(=O)c1cnn(-c2nc3c(C)cccc3s2)c1C	.	15%
CCc1c(C(=O)NNC(=S)NCc2ccccc2)csc1C	-16%	-13%
CCC(=O)Nc1ccc(C(=O)NNC(=O)c2cc(OC)c(OC)c(OC)c2)cc1	-11%	-7%
O=C(Cn1ccc([N+](=O)[O-])n1)NCCc1c[nH]c2ccccc12	?	3%
CC(=O)Nc1ccc(S(=O)(=O)N2CCN(c3ccc(C)c(Cl)c3)CC2)cc1	-20%	?
CC(C)CN1C(=O)c2ccc(C(=O)NCc3ccccn3)cc2C1=O	-3%	-10%
COc1ccc(N2c3ccccc3CN(Cc3ccccc3)[C@@H](C)[C@H]2Cc2ccc(-c3ccccc3)cc2)cc1	?	-8%
O=C(N/N=C/c1ccc(OC(F)F)cc1)c1cc[n+]([O-])cc1	-1%	-23%
CCN(c1ccccc1)S(=O)(=O)c1ccc(OC)c(NC(=O)COc2ccc(C(C)=O)cc2)c1	0%	-2%
COc1cccc(C2C(C(=O)Nc3ccccc3OC)=C(C)Nc3nc(-c4ccco4)nn32)c1 (centres undefined)	-2%	-6%
CN(CCO)c1ncnc2nc[nH]c12	i	-21%
OC(CNc1ccnc2cc(Cl)ccc12)CNC1CCCCC1 (centres undefined)	-15%	?
COc1ccc(Cc2c(-c3ccc(C)cc3)nc3c(C)cc(Br)cn23)c(C)c1	i	4%
COC(=O)c1ccc(-n2cc(-c3ccc(OC)cc3)[nH]c2=S)cc1	-11%	8%
c1ccc2scnc2c1	-14%	-5%
COc1ccc(OC)c(C(=O)CN2C(=O)C(=O)N(C3CCCC3)C2=O)c1	i	-6%
CCCC(=O)NCCc1c(I)[nH]c2ccc(OC)cc12	-4%	-18%
Cc1nc2oc3ccc(Cl)cc3c(=O)c2cc1C(=O)O	-10%	-4%
Cc1ccc(NC(=O)c2cn(CCC#N)nc2-c2cccs2)c([N+](=O)[O-])c1	-8%	-16%
Nc1ccc(N2CCCCC2)c2nonc12	i	0%
Cc1sc2nc(SCC(=O)N3CCN(CCO)CC3)n(-c3ccccc3)c(=O)c2c1C	-19%	-13%
CCOC(=O)C1(C)CCN1C(=O)c1ccc2ccccc2c1 (centres undefined)	i	-26%
COc1cc(C(=O)N(CCc2ccccc2)C2=CC3CCC(C2)N3C)cc(OC)c1OC (centres undefined)	i	-11%
CC(=O)Nc1ccc(NC(=O)COC(=O)c2cc(S(=O)(=O)N(C)C)ccc2N2CCCC2)cc1	-28%	-19%
CCN(CC)C(=O)c1ccc(NC(=O)c2sccc2-c2ccccc2)cc1	-25%	-16%
O=C(CCCCCBr)N1CCC(CC2CC(c3cccc(Br)c3)=NO2)(C(=O)NCC2CCCCC2)CC1 (centres undefined)	i	?
COC(=O)c1sc(Nc2ccccc2)nc1C	?	-34%
Cc1cccc2sc(N(Cc3cccnc3)C(=O)Cc3ccccc3)nc12	i	-10%
O=C(Nc1ccccc1[N+](=O)[O-])c1ccc(S(=O)(=O)N2CCCC2)cc1	-6%	-12%
C[C@H](CO)N1C[C@H](C)[C@@H](CN(C)S(=O)(=O)c2ccccc2)Oc2ccc(NC(=O)Cc3ccccc3)cc2C1=O	i	-12%
